Assay outcomes deposited in PubChem BioAssay by National Center for Advancing Translational Sciences (NCATS).
TRPV1 potentiator: enhances activation of the human vanilloid receptor TRPV1 | AID 540277 | 0.02% of 320,000 active | Q8NER1 | TRPV1-expressing cells, Fluo-8 calcium influx, capsaicin EC20 potentiation; host cell line not named in the record; control for the full effect not named in the record | potentiation, % at 8.33 µM; active means potentiation above 80%; inconclusive means 30% to 80%; inactive means below 30%; note: 0% is about no effect
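Cells expressing TRPV1 were dye-loaded with Fluo-8 and read kinetically: 10 s baseline, 3 min after compound (agonist portion), then 2 min after EC20 capsaicin (allosteric enhancer portion). Calcium-bound dye fluorescence at 480/520 nm.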
TRPML1 inh: blocks the human TRPML1 channel. TRPML1-inducible cells, Ca2+ dye fluorescence, FDSS; active compounds read low; inhibition of EC80 agonist-evoked calcium signal. activity change, negative = inhibition, % (no concentration beside the values). 0.02% of 390,000 active. Q9GZU1; in the data active means activity change below about -50%; inconclusive means about -30% to -50%; inactive means above about -30%;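 note: stimulus is agonist 54-4 at its EC80 concentration; % is set by controls: 0 for no effect and ±100 for the full control effect; compound concentration not given in the record; the text of the record puts the active cut at -80%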
Target sequence (Q9GZU1 whole entry, looked up): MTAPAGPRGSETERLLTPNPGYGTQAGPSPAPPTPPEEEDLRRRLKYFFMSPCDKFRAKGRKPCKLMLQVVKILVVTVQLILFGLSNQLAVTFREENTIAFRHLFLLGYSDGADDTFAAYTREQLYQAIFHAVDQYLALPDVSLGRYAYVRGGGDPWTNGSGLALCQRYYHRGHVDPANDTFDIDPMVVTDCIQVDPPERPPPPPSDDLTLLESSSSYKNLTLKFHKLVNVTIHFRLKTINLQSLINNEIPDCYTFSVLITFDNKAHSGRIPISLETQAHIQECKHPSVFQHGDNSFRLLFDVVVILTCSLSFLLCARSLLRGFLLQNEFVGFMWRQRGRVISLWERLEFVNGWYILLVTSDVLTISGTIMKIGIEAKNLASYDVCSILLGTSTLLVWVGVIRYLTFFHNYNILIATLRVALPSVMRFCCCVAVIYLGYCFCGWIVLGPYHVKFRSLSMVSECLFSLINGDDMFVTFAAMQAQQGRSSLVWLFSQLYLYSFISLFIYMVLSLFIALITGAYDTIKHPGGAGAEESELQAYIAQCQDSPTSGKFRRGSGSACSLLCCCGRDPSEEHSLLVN
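Tet-induced TRPML1-DL cells loaded with Ca8 no-wash calcium dye were read kinetically on FDSS. Compound addition was followed by EC80 agonist 54-4 (4 uM final); inhibition was read over 110 s.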
TRPML1 agonist: agonists of human TRPML1 channel | Q9GZU1 | 0.12% of 410,000 active | activation, % (no concentration beside the values) | TRPML1-expressing cells, Ca2+ dye fluorescence, FDSS; host cell line not named in the record; reference of the full effect not given here; in the data active = activation above about 50%; inconclusive = about 30% to 50%; inactive = below about 30%; note: 0% is about no effect; the text of the record puts the active cut at 80%
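Agonist activity was taken from a 110 s kinetic Ca2+ dye read on the FDSS after pinning compounds onto TRPML1-DL cells. The cells were seeded at 1,500/well with Tet inducer, incubated about 16 h, then dye-loaded at room temperature.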
Menin-MLL FL inh: displaces fluorescein MLL peptide from human menin. Fluorescence polarization, fluorescein-MLL peptide displacement from menin. FP activity change, % at 61.4 µM. 290,000 tested, under 10 active. AID 1766; inconclusive = falling polarisation curve, or a change in total fluorescence; inactive = total fluorescence flat and polarisation flat or rising; no compound was filed as active; the % refers to the polarisation; negative = inhibition;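 note: % of control where 0% means no effect; inhibitors lower the polarisation; unlabelled MLL peptide was the positive control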
Sfp inh: Sfp phosphopantetheinyl transferase inhibition | Biochemical Sfp PPTase activity, qHTS | Potency, µM, without a hit: max response, negative = inhibition, actives largely listed as inhibitors | 3.5% of 310,000 active | AID 1490; active = well fitted inhibition curve with a large enough effect; inconclusive = small, poorly fitted or top-dose-only effect, or another doubt; inactive = no such curve, though single readings can be large or run the other way;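 note: the enzyme is Sfp with the accession as filed and its product quenches rhodamine fluorescence; potency is the fitted concentration of half-maximal effect; 0% = enzyme reaction without inhibitor and -100% = no enzyme wells; top concentration of the series not given in the record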
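With Hepes-Na pH 7.6 buffer containing 10 mM MgCl2, Sfp (15 nM) modified BHQ-2-YbbR (12.5 uM) using rhodamine-CoA (5 uM). Two reads 30 minutes apart at 525/598 nm yielded each well's rate.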
ClpP mod: qHTS Assay for Activators of ClpP; ATP-dependent Clp protease proteolytic subunit (Bacillus subtilis (strain 168)), P80244; purified B. subtilis ClpP, FRET peptide cleavage, 20 min; Potency, µM (series often up to 57.5 µM), without a hit: at the highest dose activity change, negative = active; 1.9% of 340,000 active; AID 651965, 2013; active = well fitted falling curve with a large enough effect; inconclusive = small, poorly fitted or top-dose-only effect; inactive = no such curve, though single readings can be large or run the other way; note: potency is the fitted concentration of half-maximal effect; the source files actives as falling curves though it sought activators and does not explain the sign; nearly all actives have a fitted effect of over 65% in size; many hits overshoot -100%
Target sequence (P80244 whole entry, looked up): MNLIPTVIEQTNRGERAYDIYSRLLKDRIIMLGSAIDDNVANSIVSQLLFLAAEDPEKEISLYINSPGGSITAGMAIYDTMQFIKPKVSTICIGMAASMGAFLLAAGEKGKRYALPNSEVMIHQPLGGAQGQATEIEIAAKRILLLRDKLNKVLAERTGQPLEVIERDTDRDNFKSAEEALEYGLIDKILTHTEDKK
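Purified B. subtilis ClpP, 10 microg/mL final in Tris/HCl pH8 with KCl, BSA, glycerol and Tween-20, cleaved an Abz/nitrotyrosine-quenched decapeptide. Fluorescence (ex 320, em 430) was read at 0 and 20 min at room temperature. Delta was normalized to 5.8 microM ADEP and DMSO/no-enzyme controls.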
PINK1 expr mod: changes PINK1 expression | PINK1 immunofluorescence, high-content cytometry, 24 h | Potency, µM (highest dose often 76.6 µM), inactives show at the highest dose activation (PINK1 increase), most hits filed as activators | 0.2% of 410,000 active; active = well fitted activation curve with a large enough effect; inconclusive = small, poorly fitted or top-dose-only effect; inactive = flat fitted curve, though single readings scatter; cell line not stated here;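 note: potency is the fitted concentration of half-maximal effect; % of control where 0% means no effect; nearly all actives have a fitted effect of over 65% in size; a mitochondrial uncoupler was the plate control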
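PINK1 protein level read as immunofluorescence by microplate cytometer in a fixed, stained stable cell line after 24 h exposure to five compound concentrations, with CCCP as control.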
Active calls of the source: *; u = inconclusive; x = no result given; & = joins results of further samples; [ ] = dose if it differs, or a comment.

SMILES | TRPV1 potentiator | TRPML1 inh | TRPML1 agonist | Menin-MLL FL inh | Sfp inh | ClpP mod | PINK1 expr mod
CC(=O)Oc1cccc(/C=N\NC(=O)C(=O)N/N=C/c2cccc(OC(C)=O)c2)c1 | 5 | 13 | 1.3 | x | x | 28% | 1.3%
COc1ccccc1/C=C/C(=O)OC(C)CN1CCCCC1 (stereo not drawn) | 0 | -9 | -0.4 | 3.6 | 3% | -1.1% | 1.8%
CCOC(=O)C1C(=O)CC(O)(c2ccccc2)CC1c1ccccc1 (stereo not drawn) | 1 | -6 | 1.5 | 2.6 | 13% | -0.7% | -0.9%
COc1ccc2c(c1OC)C(=O)N(c1ccc(C)cc1)C2 | 5 | 7 | 0.2 | 6.5 | 4% | x | 3.4%
COc1ccc(C2=C(C=C(C#N)C#N)C(c3ccccc3C)c3ccccc3O2)cc1OC (stereo not drawn) | 4 | -2 | 2.0 | 18 | u | -4.5% | -1.2%
COc1cc(NC(=O)c2cnc(N)o2)cc(C(=O)Nc2cccc(C(F)(F)F)c2)c1 | -10 | 10&-1 | -0.6&1.7 | 0.3 | 8% | -3.1%&-0.4% | -2.3%&2.5%
COc1ccccc1CN1CCCC2(CCN(C(=O)c3c(C)noc3C)CC2)C1 | x | x | x | 1.6 | -4% | x | 0.0%
CCC(C)C(NC(=O)OCc1ccccc1)C(=O)OCN1C(=O)c2ccccc2C1=O (stereo not drawn) | -12 | -7 | 4.5 | -0.2 | 7% | 0.1% | 1.3%
CCC[C@@H](NS(=O)(=O)c1ccc(C)cc1)C(=O)Oc1ccc2c3c(c(=O)oc2c1)CCC3 | 4 | 1 | 2.6 | -2.0 | 16% | 311% | 1.9%
CCCCNC(=O)c1ccc2c(c1)N(Cc1ccc(F)cc1)C(=O)c1ccccc1S2=O (stereo not drawn) | x | 9 | -0.9 | x | x | -4.4% | -0.2%
COCC(=O)N1CCC2(CC1)CN(C(c1ccccc1)c1ccccc1)C2 | x | x | x | -6.9 | -5% | x | 0.2%
COc1ccc(NS(=O)(=O)c2cccc(NC(=O)c3ccc(Cl)nc3)c2)cc1 | -9 | 15 | 3.2 | -0.7 | 14% | x | 4.8%
CC(=O)NC(CC(=O)O)C(=O)O (stereo not drawn) | -11 | 16 | -0.2 | 4.0 | -10% | 1.9% | 1.4%&0.8%
COc1ccc(S(=O)(=O)N2CCOCC2)cc1NC(=O)[C@@H]1CCCN1C(=O)c1cccs1 | 4 | 0 | -0.5 | 3.1 | 14% | x | 2.7%
O=C(c1ccc(S(=O)(=O)N2CCc3ccccc3C2)cc1)N1CCCCC1 | -10 | 2 | 1.8 | 1.7 | 9% | -3.2% | -0.6%
C=CCSc1nsc(NC(=O)Nc2ccc(F)cc2)n1 | 0 | 39 | 2.5 | -0.7 | 11% | x | u
CCN(c1ccccc1)c1nc(N)nc(C#N)n1 | x | x | -0.9 | x | x | -1.6% | 0.2%
CN(C)c1ccc(-c2ccnc3c2CC(C)(C(=O)NCCC(F)(F)F)O3)cc1 (stereo not drawn) | x | x | -1.1 | x | x | 5.1% | 9.1%
O=C(Nc1nc2c(s1)CCc1ccccc1-2)c1cccs1 | -9 | 3 | 1.4 | 8.6 | -10% | -20% | 20%
O=C(/C=C/c1ccc(F)cc1)c1cc(Br)ccc1O | -3 | 20 | 0.4 | -0.1 | -3% | x | -0.5%
O=C(c1ccco1)N1C(=O)c2cccc3c(S(=O)(=O)N4CCCC4)ccc1c23 | 3 | 41 | -0.2 | -0.6 | -2% | -6.0% | 7.3%
CN(C)CCCOC(=O)c1ccc(Cl)cc1Cl | 6 | 8 | -0.1 | -7.8 | 4% | 1.3% | 7.2%[38.3 µM]
Cc1ccc(-n2c(SCC(=O)N3CCOCC3)nc(O)c(Cc3ccccc3)c2=O)cc1 | 1 | 4 | -0.3 | 3.5 | 7% | -1.7% | 1.2%
Cn1c(=O)c2c(nc(Br)n2Cc2ccccc2Cl)n(C)c1=O | -3 | -3 | 1.5 | -0.8 | -7% | 1.9% | -0.4%
COc1ccccc1C(CNC(=O)COc1cc(C)ccc1Cl)N1CCCC1 (stereo not drawn) | -1 | -5 | -1.0 | x | x | -4.7% | 2.8%

(listing goes on)
SMILES | TRPV1 potentiator | TRPML1 inh | TRPML1 agonist | Menin-MLL FL inh | Sfp inh | ClpP mod | PINK1 expr mod
Cc1ccc(NC(=O)CSCC(=O)NC2=NCCS2)cc1 | -5 | -9 | 1.8 | x | x | 0.5% | 5.0%
O=C(COc1cccc(C(F)(F)F)c1)NCC(c1cccs1)N1CCOCC1 (stereo not drawn) | -25 | 1 | 0.2 | x | x | -0.5% | 0.6%
O=C1CC2(CCCC2)Oc2ccc(Cl)cc21 | x | 10 | -0.7 | x | x | 4.2% | 4.5%
COc1ccc(S(=O)(=O)NC2CCCCC2)c(C)c1C | -7 | -10 | 1.6 | -0.8 | 5% | 5.3% | 2.6%
COc1cccc(NC(=S)NCc2ccccn2)c1 | -3 | -6 | 0.2 | 4.9 | -40% | 1.2% | 0.1%
COc1ccccc1N1CCN(C(=O)c2cccc(S(=O)(=O)N3c4ccccc4CC3C)c2)CC1 (stereo not drawn) | x | -11 | 3.6 | x | x | -3.1% | 0.8%
COc1ccc(C)cc1NC(=O)C1CCN(S(=O)(=O)Cc2ccccc2)CC1 | x | 4 | -0.9 | x | x | 1.1% | 6.2%
COc1ccc(N2C(C)=CS/C2=C(/C#N)c2nnc(N3CCOCC3)n2-c2ccccc2)cc1 | 28 | -1 | -0.8 | -1.9 | 14% | -6.7% | x
Cc1sc2ncnc(NCCCN3CCCC3=O)c2c1C | -4 | -6 | 4.0 | 4.8 | 14% | 0.9% | 2.9%
O=C(NCCc1c[nH]c2ccccc12)c1c(Cl)nc2sccn12 | -9 | 12 | 1.0 | -0.7 | -1% | -1.4% | 1.8%
CC(=O)NC1(C(F)(F)F)C(=O)Nc2c1c(=O)[nH]c(=O)n2CC(C)C (stereo not drawn) | -38 | 10 | 0.0 | 2.2 | 19% | 0.8% | 1.1%
CC1(C)CC(=O)C(CS(=O)(=O)c2ccccc2)=C(O)C1 | 1 | 7 | 1.1 | x | 50µM* | -0.9% | 0.0%
COc1cc2c(cc1OC)CN(Cc1cc(OC)c3c(c1)OCO3)CC2 | -1 | 2 | 0.3 | -9.6 | u | x | -1.1%
CC1=C(C(=O)N(C(C)C)C(C)C)CC(CC(=O)NC2CCCCC2)C(=O)N1CCCN1CCCC1=O (stereo not drawn) | x | x | -0.3 | x | x | -3.2% | -0.6%
CCOC(=O)c1c(C)[nH]c(C)c1S(=O)(=O)N1CCCC(C(=O)Nc2ncccc2C)C1 (stereo not drawn) | x | -4 | -0.5 | x | x | 0.3% | 1.3%
COc1ccc(C(=O)CSc2nc(N)nc(SC)c2C#N)cc1 | -8 | 2 | 0.1 | 6.6 | 12% | 0.4% | -1.1%
CCOC(=O)c1nnn(-c2nonc2N)c1CSc1ccc(C)cc1 | 4 | -2 | 0.6 | -4.6 | 7% | 1.1% | -0.2%
c1cncc(CNc2c3c(nc4nnnn24)CCCC3)c1 | -4 | -5 | -0.5 | 0.1 | 11% | -1.6% | 2.2%
COc1ccc(C2CC(c3ccccc3)=NN2S(=O)(=O)c2ccccc2)cc1 (stereo not drawn) | 4 | -2 | 1.4 | u | 4% | -2.1% | 5.8%
CCN(CC)C(=O)C1CCCN(C(=S)Nc2cccc3ccccc23)C1 (stereo not drawn) | -4 | -21 | 1.1 | 3.0 | -14% | -6.5% | -1.6%
Cc1nc2ccccc2c(=O)n1/N=C/c1ccccn1 | 11 | 4 | 0.1 | -2.5 | u | -0.6% | -5.4%[38.3 µM]
Nc1cc(=O)[nH]c(SCC(=O)N2CCCCC2)n1 | 24 | -3 | 1.1 | -5.2 | 17% | x | -1.2%
COc1ccc(CN2C(=O)C(CC(=O)NC(c3ccccc3)c3ccccc3)CC(C(=O)N(C)C)=C2C)cc1 (stereo not drawn) | x | -1 | 0.6 | x | x | -1.0% | 0.7%
COc1ccc(-n2c(O)c(/C=N/NS(=O)(=O)c3cccc([N+](=O)[O-])c3)c3ccccc3c2=O)cc1OC | 8 | -2 | 5.7 | u | -14% | x | 1.3%
Cc1cccc(CS(=O)(=O)CC2Nc3ccc(C(=O)NCc4ccccc4)cc3NC2=O)c1 (stereo not drawn) | x | 6 | -0.7 | x | x | u | 7.4%

(listing goes on)
SMILES | TRPV1 potentiator | TRPML1 inh | TRPML1 agonist | Menin-MLL FL inh | Sfp inh | ClpP mod | PINK1 expr mod
Cc1ccc(C)c(/C(O)=C2\C(=O)C(=O)N(CCCn3ccnc3)C2c2cccnc2)c1 (stereo not drawn) | -40 | -3 | 0.7 | 0.0 | 5% | 1.2% | 5.3%
COc1ccccc1NC(=O)N1CCN(c2cc(-c3ccccc3)nc3ncnn23)CC1 | 5 | 30 | 3.4 | 0.0 | 5% | -11% | u
COc1ccc(CNC(=O)c2cc3c(C)nc4ccccc4c3o2)c(OC)c1 | 8 | -6 | 0.4 | -1.4 | -13% | 1.8% | 4.9%
COc1cc(NC(=O)c2cc(Cl)nnc2Cl)cc(OC)c1OC | 4 | 17 | -0.7 | -1.2 | 5% | 1.3% | 5.7%
COc1ccc(NC(=O)Cc2coc3cc(C)c(C(C)C)cc23)cc1S(=O)(=O)N1CCOCC1 | 12 | 6 | 0.9 | 5.7 | -1% | -0.7% | 4.1%
COC(=O)N/N=C/c1ccc(-c2cccc(Cl)c2)o1 | -4 | 5 | 0.0 | 4.1 | -24% | -0.2% | -0.4%
Cc1c(C(=O)NC(C)CCc2ccccc2)cccc1[N+](=O)[O-] (stereo not drawn) | -13 | -7 | -1.4 | -3.2 | 4% | 0.8% | -0.9%
Cc1ccc2nc(-c3ccccc3)cc(C(=O)NCC(c3ccco3)N(C)C)c2c1 (stereo not drawn) | 11 | -5 | -0.3 | x | x | u | 2.6%
COC(=O)N1CCC[C@@]2(CCN(C(=O)Nc3cccc(F)c3)C2)C1 | x | x | x | 0.3 | 19% | x | 1.9%

Entries listed so far shown as hits in Sfp inh:
canonical_smiles	TRPML1 inh	Menin-MLL FL inh	Sfp inh	PINK1 expr mod
CC1(C)CC(=O)C(CS(=O)(=O)c2ccccc2)=C(O)C1	7	x	50µM*	0.0%
